Screens as filed in PubChem.
Vif A3G = HIV-1 Vif–A3G interaction blockers – biochemical, TR-FRET, GST-Vif 1-94, biotin-A3G peptide, dose response retest, primary screen (AID 1117319) | one-dose inhibition, %; IC50 in µM for titrated hits | TR-FRET GST-Vif / biotin-A3G peptide binding; higher % means a stronger effect; test concentration not given here; strong numbers were not always called active | 0.57% of 260,000 active;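 active = above the screen mean plus three standard deviations and confirmed in dose response; inconclusive = results disagree or hit not tested in dose response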;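 also: Vif residues 1-94 fused to GST binding biotinylated APOBEC3G peptide 110-148; 0% = full assay without inhibitor and 100% = GST in place of GST-Vif; retest series ran down from 100 µM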
LANA-H2A inh = blocks KSHV LANA binding to histone H2A/H2B | cell-free LANA-H2A/H2B peptide, fluorescence polarization | 0.6% of 320,000 active | inhibition, % (no concentration beside the values) | Q9QR71; in the data active = inhibition mostly above about 10%, no sharp cut-off; inactive = mostly below about 6.7%;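 also: stock transfer was 7.5 nL into about 10 µL; 0% = median of vehicle wells and 100% = median of positive control wells; one replicate is shown; the record names a cut of 25% in any replicate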
Calb FLC = C. albicans growth modulation with fluconazole | C. albicans CaCi-2 (fluconazole-resistant clinical isolate) + fluconazole, Alamar Blue growth, 48 h | growth inhibition, % (concentration not given with the values) | 0.57% of 300,000 active;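 active = most replicates above 75%; inconclusive = exactly half above 75%; inactive = most below 75%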;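 also: all wells also contain fluconazole at 8 µg/ml as a sub-toxic cotreatment; 0% = median of DMSO wells and 100% = median of geldanamycin control wells; wells of about 8 µL received 7.5 nL stock; the first replicate is given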
ALR inh = human ALR oxidase inhibition via reduced H2O2 | P55789 | purified ALR, DTT oxidation, H2O2 HRP-luminol luminescence | inhibition, % (no concentration beside the values) | 3.8% of 290,000 active;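 active = mean and each replicate at 75% or more; inconclusive = only one of the two met; inactive = neither met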;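 also: stock transfer was 7.5 nL into about 7.5 µL; 0% = neutral wells and 100% = wells with inactivated enzyme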
RanGTP-Impb inh = inhibitors of RanGTP-importin-beta interaction, primary screen, biochemical, FRET, CFP-Ran, YFP-importin-beta, homogeneous | cell-free CFP-Ran/YFP-importin-beta FRET ratio | inhibition, % (test concentration not listed) | 1.1% of 300,000 active;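 active = most replicates above 15%; inconclusive = exactly half above 15%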;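 also: 0% = DMSO wells and 100% = Ran loaded with GDP instead of GTP; wells of about 40 µL received 100 nL stock; the first replicate is given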
Beta2AR agonist = agonists of human beta-2 adrenergic receptor inducing internalization; P07550; Am2.2-beta2AR cells, FAP receptor internalization, flow cytometry; reference of the scale not given here; response, % (concentration not given with the values); 0.43% of 340,000 active; AID 504454;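 active = response above a set limit, near 3 SD of response in nonfluorescent compounds, cut at about 42% in these data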;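 also: stock transfer was 100 nL into about 11 µL; a reference agonist was the positive control; negative values mostly stem from fluorescent compounds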
Target sequence (P07550 whole entry, looked up): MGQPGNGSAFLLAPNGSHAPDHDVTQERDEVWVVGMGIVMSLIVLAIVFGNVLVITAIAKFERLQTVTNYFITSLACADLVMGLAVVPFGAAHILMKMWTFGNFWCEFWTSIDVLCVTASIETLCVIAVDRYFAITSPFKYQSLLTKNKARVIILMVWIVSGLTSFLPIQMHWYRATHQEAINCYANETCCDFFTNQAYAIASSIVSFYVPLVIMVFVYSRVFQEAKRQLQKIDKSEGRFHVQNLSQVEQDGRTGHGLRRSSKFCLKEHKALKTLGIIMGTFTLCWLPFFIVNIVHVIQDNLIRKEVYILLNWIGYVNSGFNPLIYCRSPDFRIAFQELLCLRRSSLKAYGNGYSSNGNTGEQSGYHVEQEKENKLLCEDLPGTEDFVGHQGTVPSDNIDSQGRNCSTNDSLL
HNF4A DNA FP = change in binding of human HNF4 alpha to DNA. HNF4a-FITC DNA binding, fluorescence polarization, 1 h. activity change, % at 10 µM. 0.3% of 360,000 active; in the data active = activity change above about 30%, passing the limit was not always enough;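 also: controls were the assay level and a saturating level of protein; the project sought stronger binding though the title names inhibitors; some compounds called inactive have numbers as strong as hits; positive values seem to mean higher polarization but the record does not say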
Target sequence (P41235 whole entry, looked up): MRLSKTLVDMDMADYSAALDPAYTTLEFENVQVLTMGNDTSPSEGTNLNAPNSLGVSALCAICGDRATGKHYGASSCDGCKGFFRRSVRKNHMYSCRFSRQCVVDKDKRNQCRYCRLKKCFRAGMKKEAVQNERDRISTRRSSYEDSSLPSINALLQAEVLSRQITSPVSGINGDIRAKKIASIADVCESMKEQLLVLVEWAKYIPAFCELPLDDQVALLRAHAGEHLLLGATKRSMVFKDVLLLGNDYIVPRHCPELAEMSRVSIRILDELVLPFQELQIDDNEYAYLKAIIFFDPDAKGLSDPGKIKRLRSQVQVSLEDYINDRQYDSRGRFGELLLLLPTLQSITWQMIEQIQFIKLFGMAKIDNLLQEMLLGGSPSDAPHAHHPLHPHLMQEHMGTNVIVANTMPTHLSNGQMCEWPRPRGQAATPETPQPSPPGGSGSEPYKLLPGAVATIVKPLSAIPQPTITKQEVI
Starred values were filed as active, the others as inactive; ? = inconclusive; . = no result given. No enrichment for hits; 6.3% or so of the library scored in one or more.

SMILES | Vif A3G | LANA-H2A inh | Calb FLC | ALR inh | RanGTP-Impb inh | Beta2AR agonist | HNF4A DNA FP
CC(NC(=O)Nc1ccc2c(c1)OCO2)c1ccncc1 (centres undefined) | ? | 4.7 | -2.1 | -0.8 | 5.7 | 5.1 | -0.8
Cc1ccc(NC(=O)CSc2nnc(NC(=O)c3ccco3)s2)cc1 | -5.4% | 4.6 | 14.0 | -4.8 | -1.1 | -5.8 | -2.8
CCOc1ccc(N(CC(=O)NCC(C)C)S(C)(=O)=O)cc1 | -5.9% | 7.7 | 1.8 | -3.6 | -6.4 | 1.8 | -3.8
CC(C)NC(=O)CC1OC(=O)c2ccccc21 (centres undefined) | -4.1% | 2.6 | -15.1 | 0.4 | -4.2 | 4.0 | 4.7
Cc1ccc(C(=O)NCC(=O)OCC(=O)NCC(F)(F)F)cc1 | -1.4% | -4.6 | -6.1 | -16.4 | 3.5 | 6.0 | -0.9
Cc1ccc(C(NC(=O)C(C)C)c2cc([N+](=O)[O-])c3cccnc3c2O)cc1 (centres undefined) | ? | 3.0 | -7.3 | . | 1.5 | -3.2 | 9.3
CCOC(=O)CNC(=S)N(Cc1cccs1)C1CCCC1 | . | -3.9 | 4.6 | -3.1 | 0.8 | 1.9 | 0.6
O=C(CCC(=O)N1CCc2ccccc2C1)NCCc1ccc(Cl)cc1 | 1.7% | -1.0 | 30.0 | -6.5 | -0.4 | 0.4 | 2.5
CCN(CC)S(=O)(=O)c1ccc(NC(=O)c2cnccn2)cc1 | . | -0.2 | -8.3 | -4.7 | 8.8 | 2.4 | 3.6
CCOc1ccccc1/C=C(\C#N)C(=O)NC1CC1 | . | -0.1 | -12.9 | 7.2 | 0.6 | -3.8 | 2.1
CCOCCCN(Cc1cc2cc(C)cc(C)c2[nH]c1=O)C(=O)N(CC)CC | -0.1% | -1.1 | 7.6 | -4.0 | -3.2 | -1.5 | 1.0
Cc1csc(CNc2ncnc3ccc(-c4ccoc4)cc23)c1 | . | 1.0 | . | -5.3 | . | -6.3 | 2.3
O=C(Cn1c(=O)cnc2ccccc21)Nc1cc(Cl)ccc1N1CCOCC1 | 4.1% | 9.1 | . | -1.9 | . | 4.2 | 13.0
CCOC(=O)Cc1nnc(NC(=O)COc2ccc(OC)cc2)s1 | 4.0% | 1.4 | -4.4 | -0.2 | 2.5 | 0.8 | 1.8
Cc1[nH]c2ccccc2c1C(c1ccccn1)N1CCC(C(N)=O)CC1 (centres undefined) | 6.1% | -5.5 | 8.6 | 97.8* | -2.5 | 3.9 | -1.5
COc1ccccc1N1CCN(CC(=O)c2c(C)n(C)c3ccccc23)CC1 | 3.5% | 2.6 | -12.5 | 6.1 | 3.7 | 34.0 | 3.5
CCc1ccc([C@H]2C(C(=O)O)=C[C@@H](CC)N2S(=O)(=O)c2ccc(C)cc2)cc1 | -0.2% | . | . | . | . | 3.2 | 26.4
CCn1c(SCC(N)=O)nnc1-c1ccc(S(=O)(=O)N2CCN(C)CC2)cc1 | -7.5% | 1.4 | -13.6 | -7.6 | -0.4 | -10.5 | 2.8
CC(C)CCNC(=O)CN(Cc1ccccc1)C(=O)CCC(=O)Nc1ccccn1 | . | -2.6 | -6.1 | -68.3 | -1.2 | -6.5 | 2.3
COc1cc(-c2nnco2)cc(OC)c1OC | . | 2.1 | -14.7 | -1.7 | -5.7 | . | .
CN(C)c1ccc(C(=O)/C=C/c2ccccc2)cc1 | 11.4% | -1.5 | -45.2 | . | 3.5 | 0.4 | 4.6
COc1cc(NC(=O)c2ccc3snnc3c2)cc(OC)c1 | -8.8% | -2.7 | -2.8 | 3.0 | -2.3 | -6.9 | 7.6
O=S(=O)(c1cccc(C(F)(F)F)c1)N1CCC(CO)(CCCc2ccccc2)CC1 | . | -0.3 | 3.4 | 1.0 | -0.5 | 2.4 | -0.6
CCOC(=O)c1ccc(N=NN(C)C)cc1 | 7.4% | 2.7 | 2.3 | -9.8 | -1.4 | -0.1 | -0.1
CCN(CC)CCn1c2c(c(SCC(=O)Nc3ccc(F)c(F)c3)nc1=O)CCC2 | 3.9% | 1.6 | 5.2 | 91.7* | 2.6 | -10.1 | 0.3

Continued.
SMILES | Vif A3G | LANA-H2A inh | Calb FLC | ALR inh | RanGTP-Impb inh | Beta2AR agonist | HNF4A DNA FP
Cc1ccc(S(=O)(=O)N(C)c2ccc(OCC(=O)NC3=NCCS3)cc2)cc1 | -11.7% | 8.8 | 6.7 | . | 5.8 | -4.5 | 4.3
CCOC(=O)C1=C(CN2CCC(C)CC2)NC(=O)NC1c1ccc(Cl)cc1 (centres undefined) | -2.0% | -7.9 | 10.9 | -1.2 | -0.1 | 1.1 | -5.4
CCCOC(=O)c1ccc(Oc2cn[nH]c2-c2ccc(O)cc2O)cc1 | -5.3% | -2.5 | 8.8 | 84.8* | 0.0 | 13.1 | 3.7
CCC(=O)NCCN1CCN(C(=O)CC)CC1 | -1.0% | 0.9 | -10.9 | -5.0 | 4.9 | -7.7 | -0.8
Cc1ccc(CC(=O)Nc2cccc(C)n2)cc1 | -2.0% | 2.4 | -1.9 | -4.1 | ? | -1.0 | 1.1
O=C(Cn1nnc(-c2ccccc2)n1)NC(=O)NC1CCCC1 | . | 2.5 | . | -10.0 | . | -15.9 | -3.8
Cn1c(=O)oc2cc(S(=O)(=O)NCC3CCCO3)ccc21 (centres undefined) | -4.8% | 8.5 | ? | -7.7 | 3.3 | -127.3 | 11.3
O=C(NC(=S)NNC(=O)c1cccs1)c1ccc(Br)o1 | 0.5% | 5.2 | -0.9 | 98.7* | 0.6 | 1.5 | -0.7
CCOc1ccc2cc(C(=O)c3ccccc3)c(=O)oc2c1 | -22.1% | 2.9 | 8.8 | -3.8 | 2.9 | 6.3 | -2.1
O=C(CNC(=O)c1ccco1)NNC(=O)c1ccc(Br)cc1 | . | 2.3 | . | -12.3 | . | -2.7 | 0.2
CS(=O)(=O)c1ccc(C(=O)OCC(=O)NC(=O)Cc2ccccc2)cc1 | -0.7% | 1.5 | -0.6 | -8.6 | 4.8 | -5.2 | 2.8
CCOC(=O)c1sc(NC(=O)CSc2nc3c(c(=O)n2-c2ccc(C)cc2)SCC3)c(C(=O)OCC)c1C | -4.1% | -2.9 | 4.0 | 31.8 | -0.3 | -10.1 | 3.4
CN(CC(=O)NCCc1ccc(S(N)(=O)=O)cc1)S(=O)(=O)c1ccc(Br)s1 | . | -2.4 | -4.4 | -14.0 | -0.2 | -3.3 | 2.5
CN1C(=O)Cc2cc(S(=O)(=O)NCc3c(F)cccc3Cl)ccc21 | -8.3% | -4.3 | 7.3 | . | -0.5 | 2.6 | 1.3
Cc1cc2oc(C(=O)NCc3ccc4c(c3)OCO4)c(C)c2cc1C | -12.4% | -4.5 | -2.4 | 13.4 | -2.3 | -4.0 | -3.5
COc1ccc(N2CCN(C(=O)COC(=O)Cc3c(F)cccc3Cl)CC2)cc1 | -3.5% | 1.8 | -6.0 | 57.4 | 1.2 | -5.7 | -0.1
CCn1c(SCC(=O)N/N=C/C=C\c2ccco2)nc2ccccc21 | ? | -0.1 | 7.1 | 32.3 | -0.3 | 3.0 | 1.7
COc1ccccc1NS(=O)(=O)c1cccc(C(=O)NN=C2CCCC2)c1 | 22.9% | 7.7 | -46.2 | 2.2 | 3.1 | -2.6 | -2.2
CCCc1ccc(OCC(O)CN2CCCC2)cc1 (centres undefined) | -0.2% | 1.5 | -65.6 | -1.8 | 0.6 | -7.2 | 3.0
COc1ccc(CCNC(=O)C2CC(c3ccc(C(F)(F)F)cc3)=NO2)cc1 (centres undefined) | 1.6% | -3.8 | 25.3 | 34.9 | 0.5 | -6.7 | 6.7
Cc1ccc(N2CCN(S(=O)(=O)c3ccc(-n4cnnn4)cc3)CC2)c(C)c1 | . | -2.8 | -3.7 | -3.4 | 3.2 | -3.5 | 2.6
COc1ccc(NC(=O)C/C(C)=N/NC(=O)c2cnccn2)cc1 | -0.6% | -3.4 | -15.0 | 11.3 | 0.7 | -0.7 | 30.3*
Cc1ccc(Nc2ncnc3nc[nH]c23)cc1Cl | 4.4% | -0.1 | 15.7 | -7.1 | 4.4 | -0.1 | 1.3
N/C(CC(=O)Nc1ccc(F)cc1F)=N\OC(=O)c1cccs1 | -2.3% | 1.2 | 3.7 | -10.5 | 5.1 | 3.6 | 4.8
CN=C(Cc1ccccc1)C1=C(O)CC(C)(C)CC1=O | 1.7% | 2.1 | -4.3 | 16.6 | 0.0 | 10.5 | 3.0

Going on with the list.
SMILES | Vif A3G | LANA-H2A inh | Calb FLC | ALR inh | RanGTP-Impb inh | Beta2AR agonist | HNF4A DNA FP
CCCCC[C@@H]1C=C(C(=O)O)[C@H](c2cccc(C)c2)N1S(=O)(=O)c1ccc(C)cc1 | -4.5% | -1.4 | . | . | . | -1.8 | -3.0
CCN(CC)C(=O)[C@H]1C[C@H](CC(=O)NCc2ccco2)C(=O)N2CCc3c([nH]c4cc(CCC(=O)N(C)C)ccc34)[C@]12C | 0.6% | . | . | . | . | 0.2 | -2.2
CCn1c(SCC(=O)N2CCc3ccccc32)nnc1-c1ccco1 | 9.3% | 5.6 | -8.3 | 0.1 | 1.6 | 2.4 | 2.4
Cc1nn(-c2ccccc2)c(C)c1C(=O)Oc1ccccc1 | . | 1.1 | 4.7 | -6.1 | -0.6 | -1.5 | 1.4
Cc1nnc(NC(=O)C2CCCCC2)s1 | ? | 1.5 | -5.7 | 0.0 | 0.7 | -0.7 | 16.4
CS(=O)(=O)N(CC(=O)NCC1CCCO1)c1ccc(F)c(Cl)c1 (centres undefined) | 0.9% | -14.1 | -5.8 | -8.2 | 2.8 | 1.0 | -2.0
Cc1cccc(NC(=O)CN2C(=O)NC3(CCCCCCC3)C2=O)c1C | 2.1% | -0.8 | . | -6.5 | . | -3.9 | -2.4
COc1ccc(CNC(=O)CC23CC4CC(CC(C4)C2)C3)cc1OC | -3.1% | -1.2 | -2.7 | . | -1.1 | 4.1 | 1.5
NC(=O)C1CCN(CCS(=O)(=O)c2ccc(Cl)cc2)CC1 | 30.6% | 1.3 | -16.3 | -10.3 | 1.6 | -2.2 | -2.2
